From PubChem
BJeLR viability: BJeLR cell viability loss | BJeLR (HRASV12) viability, CellTiter-Glo ATP luminescence, 48 h; reference of the scale not given here | inhibition, % (test concentration not listed) | hit rate 0.17% among 300,000 | AID 1554;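 active = replicate mean above 50%; inconclusive = above 50% but judged a plate artefact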;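 also: 50 nL library stock added to about 25 µL; numbers are from one replicate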
Mtb hypoxia inh: Mtb hypoxia fluorescent reporter inhibition | hit rate 0.1% among 300,000 | AID 1159583 | fluorescence inhibition, % (test concentration not listed) | M. tuberculosis hypoxia-regulated fluorescent reporter, fluorescence;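 active = 35 to 45% if threefold the growth effect, above 45% if 1.5-fold the growth effect; inactive = the rest, general growth blockers included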;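 also: wells of about 50 µL received 100 nL stock; 0% = vehicle wells and 100% = reference inhibitor wells; whole bacteria with a GFP reporter of the hypoxia response; strong numbers were not always called active; many hits fall short of the cut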
ugtP null kill: compounds lethal to S. aureus RN4220 ugtP deletion mutant. growth inhibition, % (test concentration not listed). OD600 growth, 16 h; some inactives read as strong as hits. hit rate 0.54% among 330,000;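 active = z-score under -3 and OD600 up to 0.15 on both plates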;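 also: plate controls were untreated wells for no effect and antibiotic for full effect; wells of about 80 µL received 100 nL stock; the first replicate is given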
Bead autofluor: counter-screen for toxin protease inhibitors: compound fluorescence; hit rate 3.1% among 360,000; AID 624483; compound autofluorescence counterscreen, microsphere flow cytometry; hits give high values; fluorescence intensity (no concentration beside the values);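 active = at least 3 SD above the mean of all compounds, about 16000 in these data; inconclusive = too few beads counted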;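 also: 100 nL of 1 mM stock went into each well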
RN4220 kill: kills Staphylococcus aureus RN4220. hit rate 0.33% among 330,000. S. aureus RN4220 growth, OD600, 16 h. inhibition, % (test concentration not listed);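 active = z-score of -3 or lower and OD600 up to 0.18 on both plates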;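 also: plate controls were untreated cells for no effect and reference antibiotic for full effect; stock transfer was 100 nL into about 80 µL; one replicate is shown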
PrP 5UTR inh: inhibition of PrP 5' UTR reporter expression; cell-based PrP 5' UTR mRNA reporter, plate reader; inhibition, % (concentration not given with the values); hit rate 0.35% among 340,000;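 active = every replicate at 50% or more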;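 also: 0 = median of the neutral control wells; tested in H4 reporter cells; numbers are from one replicate; inactives centre near -14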
Mtb hypoxia inh growth: also measured in Mtb hypoxia inh; calls as there; growth inhibition, %; measured here: M. tuberculosis growth (absorbance);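 0% = vehicle and 100% = reference antibiotic; read after six days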
* marks the source's active call; other numbers are inactive results; ? = inconclusive; . = no result given.

SMILES	BJeLR viability	Mtb hypoxia inh	Mtb hypoxia inh growth	ugtP null kill	Bead autofluor	RN4220 kill	PrP 5UTR inh
Cc1cc(C)cc(C(=O)N2CCCCC2)c1	.	8	15	-3	3822	0.5	-13
CCN(CC)c1ccccc1	.	2	-2	12	5696	5.9	-5
Cn1c(-n2c(-c3ccco3)nc3ccccc3c2=O)nc2ccccc21	6	3	11	-26	2855	-0.5	-26
CSc1nnc(COc2ccc(C)cc2)n1N	7	-4	-7	-7	5256	4.7	-15
O=C(CCc1ccccc1)NNC(=O)CCc1ccccc1	7	0	-2	2	3739	1.5	-9
CC(C)(C)Cc1cc(N)on1	3	16	10	4	8665	1.9	2
Cc1ccc(C2(c3ccccc3)NC(=O)N(CC(=O)NC3CCS(=O)(=O)C3)C2=O)cc1C (centres undefined)	.	10	13	3	?	1.3	0
Cc1ccccc1C(=O)Nc1ccnc(-c2ccncc2)n1	1	14	5	4	4249	1.5	-9
CSc1nc(-c2ccc(Cl)cc2Cl)[nH]c(=O)c1C#N	8	11	8	19	2530	51	-15
Cc1cc(NC(=O)CSc2nc3ccccc3n2CC(=O)N2CCC(C)CC2)no1	1	.	.	-1	2287	-1.3	-30
Cc1ccc[n+](CC(=O)c2ccc(-c3ccccc3)cc2)c1	-1	7	4	-4	1890	11	-20
Cc1ccc(C(=O)NN=Cc2cccc3ccccc23)cn1	.	20	4	10	.	1.5	.
CCN(CC)S(=O)(=O)c1ccc(NC(=O)c2cc(C(=O)OC)cc([N+](=O)[O-])c2)cc1	-3	0	7	4	2555	2.4	-17
O=[N+]([O-])c1ccc(N2CCOCC2)nc1	-5	9	6	-8	4983	6.4	-33
COCOc1ccc(C=O)c(OCOC)c1	8	.	.	8	5593	3.1	-28
CCCCn1nnnc1SCC(=O)NCc1ccco1	-7	-6	6	2	3067	5.3	-23
CCOC(=O)C1=C(C)N=C2SCCC(=O)N2C1c1sccc1C (centres undefined)	10	9	5	6	2878	5.3	-22
Brc1ccccc1C=NNc1nc2ccccc2o1	.	-4	4	-1	.	-3.6	.
CCc1ccc(N2C(=O)NC(=O)/C(=C/c3cccn3CCOc3ccc(C)cc3)C2=O)cc1	-2	14	-2	5	2263	4.7	-14
NC(=O)C1CCN(C(=O)COCc2cc(-c3ccc4c(c3)OCO4)on2)CC1	-6	-1	-5	-1	5785	-0.2	-8

Compound profiles, from the list above. Values in the order: BJeLR viability | Mtb hypoxia inh | Mtb hypoxia inh growth | ugtP null kill | Bead autofluor | RN4220 kill | PrP 5UTR inh
CSc1nc(-c2ccc(Cl)cc2Cl)[nH]c(=O)c1C#N is listed as 8 | 11 | 8 | 19 | 2530 | 51 | -15
CC(C)(C)Cc1cc(N)on1 is listed as 3 | 16 | 10 | 4 | 8665 | 1.9 | 2

(more compounds)
SMILES	BJeLR viability	Mtb hypoxia inh	Mtb hypoxia inh growth	ugtP null kill	Bead autofluor	RN4220 kill	PrP 5UTR inh
C=CCNC(=S)N/N=C/c1ccc(-c2ccc(Cl)cc2Cl)o1	-2	.	.	.	4170	.	-19
COc1cc(C=NNC(=S)NCC2CCCO2)cc(OC)c1OC (centres undefined)	.	14	3	8	.	3.5	.
Cc1cccc(-c2cc3nc4c(c(NCc5ccco5)n3n2)CCCC4)c1	3	4	-5	-8	12232	-2.5	-70
Cc1ccc(-c2nnc(CSc3nnc(COc4ccccc4)n3-c3ccc(C)cc3)o2)cc1	-10	13	12	-13	3206	4.1	-3
CCCCN(C)C/C(O)=C(\C#N)c1nc(-c2ccccc2)cs1	5	5	-1	9	?	5.9	-18
Cc1cccn2c(CN3CCNC(=O)CC3)c(C(=O)N(C)CCc3ccccc3)nc12	-1	9	3	1	4521	5.7	-21
Cc1ccc(NC(=O)c2cc(C)nc3ccccc23)c(Br)c1	-25	4	5	2	2917	7.8	-61
COc1cccc(CNC(=O)COC(=O)c2ccc(C(=O)c3ccccc3)cc2)c1	.	8	7	10	2686	-0.1	10
NC(=O)NC1CCCc2c1[nH]c1ccc(Cl)cc21 (centres undefined)	2	10	5	6	4823	1.6	-17
Cc1ccc(NC(=O)C(C)SCC(=O)Nc2ccc(F)cc2)cc1S(=O)(=O)N1CCOCC1 (centres undefined)	1	0	14	-1	5803	2.8	-19
COc1cc(C=Nn2cnnc2)ccc1OC(=O)c1cccnc1	.	4	-5	-5	.	1.1	.
OCC(CO)(CO)n1cnnn1	8	12	3	-5	4934	4.9	-4
O=C(C[n+]1ccc(C(=O)NCc2ccccc2)cc1)c1ccc2c(c1)OCCO2	8	-7	-2	-2	4324	-5.7	-10
O=C(CC1SC(N2CCOCC2)=NC1=O)Nc1ccc(Cl)cc1 (centres undefined)	.	0	5	10	5343	1.1	-47
CC(C)(C)C(=O)ON=C(N)c1ccc(Oc2cc(Cl)cc(Cl)c2)c([N+](=O)[O-])c1	.	1	4	2	.	-0.6	.
CCOC(=O)C1(Cc2cccc(OC)c2)CCCN(C(=O)c2cc(C)on2)C1 (centres undefined)	-4	4	10	2	5222	1.3	-51
COc1cccc(N2CCN(S(=O)(=O)c3cc4c(cc3C)N(C)CCO4)CC2)c1	-7	1	3	10	4587	5.2	-12
Cc1cc(C)cc(NC(=O)c2ccc(NC3=NC4CS(=O)(=O)CC4S3)cc2)c1 (centres undefined)	-2	1	4	-1	4723	4.1	-2
O=C(CSc1ccc(Br)cc1)N1CCN(S(=O)(=O)c2ccccc2)CC1	0	6	10	29	5246	4.1	-13
COc1ccc(S(=O)(=O)N2CCN(C(=O)CC3CC4CCC3C4)CC2)cc1 (centres undefined)	.	5	3	9	8474	1.9	-17
O=C(c1cc2ccccc2oc1=O)N1CCN(S(=O)(=O)c2ccccc2)CC1	5	5	6	7	5458	4.1	-13
CCCCNc1nc2ccccc2n1CC(=O)Nc1c(C)cccc1CC	3	2	4	4	2460	-0.6	-5
COc1ccc(C(=O)N2CCOC2CNC(=O)C(=O)NCCc2ccccc2OC)cc1 (centres undefined)	-2	-3	-5	4	6085	1.7	-9
CCCn1c(N)c(N(CCOC)C(=O)CSCC(=O)Nc2cccc(C)c2)c(=O)[nH]c1=O	2	8	-1	2	.	4.5	-4
COc1ccc(C(=O)N2CC3(CC(c4cccc([N+](=O)[O-])c4)=NO3)CC2C(=O)NCC(N)=O)cc1 (centres undefined)	.	5	9	-1	.	3.4	.
COc1ccc2c(CC(=O)N[C@@H](Cc3ccccc3)C(=O)O)cc(=O)oc2c1	2	8	7	0	4102	4.4	-5
N#C/C(=C/c1ccc(Br)o1)C(N)=O	0	.	.	-5	5635	1.2	0
Cc1cc(NC(=O)CSc2nc(N)c(NC(=O)c3ccc(F)c(F)c3)c(=O)[nH]2)no1	-1	2	3	3	6744	4.2	-23
CN(c1ccccc1)S(=O)(=O)c1cccc(NC(=O)c2ccc3ncsc3c2)c1	11	-7	15	11	4836	4.5	-23
Cc1ccc(NCCC#N)cc1C	-7	4	4	1	9221	5.6	-7
Cc1[nH]c2ccccc2c1C(=O)CSc1nc2ccccc2c(=O)n1-c1ccccc1F	-6	0	-5	-31	.	-7.7	.
CC(=O)c1cccc(NC(=O)CSC(=O)c2ccccc2)c1	-15	14	6	17	7709	4.1	-45
NS(=O)(=O)c1ccc(CCNC(=O)c2cc(-c3ccco3)nc3ccccc23)cc1	.	1	-3	14	3166	5.4	-7
CNS(=O)(=O)c1cc(-c2nnc(N3CCOCC3)c3ccccc23)ccc1C	-6	1	-4	5	6297	6.1	-11
Cc1nc(N2CCCCC2)c(C#N)c(C)c1[N+](=O)[O-]	-6	11	8	3	3337	5.7	1
COc1cccc(CNC(=O)CCC(=O)n2ncc3cc(C)ccc32)c1OC	3	-3	-4	0	5736	3.0	-3
COc1ccccc1CN(C)CC(=O)Nc1cccc(S(=O)(=O)N2CCCCC2)c1	.	-1	3	7	5015	4.2	-62
CCN1CCN(CC(=O)Nc2ccc(Cl)c(Cl)c2)C(=O)C1=O	0	7	3	9	5998	8.3	-4
CC(C)CCn1nc(C(=O)OC(C)C(=O)NC(N)=O)c2ccccc2c1=O (centres undefined)	8	9	5	1	3832	3.2	-13
COC(=O)NN=Cc1cc(N=Nc2ccccc2Cl)ccc1O	.	3	-5	2	.	-6.5	.
CCN(CC(=O)NCc1ccc(F)cc1)CC(=O)Nc1cc(S(=O)(=O)N(C)C)ccc1C	.	2	-3	4	7896	4.2	14
C=C1c2ccccc2NC(=O)N1c1ccc(C)cc1	3	.	.	8	5314	-1.2	-32
COCCCn1c(=C(C#N)C(=O)N2CCOCC2)sc(=Cc2ccccc2OC(F)F)c1=O	.	14	4	1	.	4.0	.
O=C(O)CCC(=O)Nc1cccc(-c2csc(-c3ccccc3)n2)c1	-8	12	1	-8	3239	3.1	-6
CC(=O)c1c[nH]c(C(=O)Nc2ccc(N3CCCCCC3)cc2)c1	.	16	7	-2	.	5.6	-21
O=C(CNC(=O)c1cccs1)NCC(=O)OCc1ccccc1Cl	-6	13	12	2	8885	9.9	-6
Cc1ccc(-c2csc3n[nH]c(=S)n23)cc1	-9	6	0	1	3359	9.4	-27
C=CCSc1nc2c(c(=O)[nH]c(=O)n2C)n1Cc1ccccc1	7	-10	-10	1	3788	3.6	-21
CC(CN1CCOCC1)OC(=O)Cc1ccc(Cl)cc1 (centres undefined)	-5	14	4	4	4112	7.7	10
Cc1cc(C(=O)N/N=C/c2sc(N3CCOCC3)nc2-c2ccccc2)c(C)o1	-13	.	.	.	4410	.	-38
CN(C)C(=O)c1coc2nc3ccccc3nc12	-1	0	2	6	4215	4.9	-3
CNc1oc(-c2cccs2)nc1C#N	-7	.	.	-10	2164	-4.7	3
CCOc1ccc(CCNc2nc3ccccc3n3cnnc23)cc1OCC	2	-3	-3	9	3558	1.7	-1
Cc1c(NC(=O)CN(c2ccc(F)cc2)S(=O)(=O)c2ccccc2)c(=O)n(-c2ccccc2)n1C	7	8	16	2	5536	1.8	-8
COc1cc(S(=O)(=O)Nc2ccccc2)ccc1NC=O	-7	4	14	10	10388	4.8	-15
CCN(CC)CCCN=C(C)c1c(O)n(-c2ccc(C)cc2)c(=O)[nH]c1=O	-9	3	-1	1	8395	0.4	-2
CCN(CC)S(=O)(=O)c1ccc(C(=O)NCC2CCCCC2)cc1	-8	-2	-6	5	3265	0.0	-17
COCCNC(=O)C(c1c[nH]c2ccccc12)N(C(=O)c1snc(C(N)=O)c1N)c1cccc(OC)c1 (centres undefined)	-6	7	-4	-4	4054	4.5	-11
O=C(Cn1cnnn1)Nc1cccc([N+](=O)[O-])c1	0	1	-1	3	3279	4.8	-20
COc1ccc(CCNC(=O)C2CCC(=O)N(CC3CCCCC3)C2)cc1 (centres undefined)	-1	6	0	12	4126	2.1	-2

6 entries picked at random from those above:
SMILES	BJeLR viability	Mtb hypoxia inh	Mtb hypoxia inh growth	ugtP null kill	Bead autofluor	RN4220 kill	PrP 5UTR inh
CSc1nc(-c2ccc(Cl)cc2Cl)[nH]c(=O)c1C#N	8	11	8	19	2530	51	-15
Cc1cc(NC(=O)CSc2nc(N)c(NC(=O)c3ccc(F)c(F)c3)c(=O)[nH]2)no1	-1	2	3	3	6744	4.2	-23
COc1ccc(C(=O)N2CCOC2CNC(=O)C(=O)NCCc2ccccc2OC)cc1 (centres undefined)	-2	-3	-5	4	6085	1.7	-9
COc1cccc(N2CCN(S(=O)(=O)c3cc4c(cc3C)N(C)CCO4)CC2)c1	-7	1	3	10	4587	5.2	-12
Cc1cc(NC(=O)CSc2nc3ccccc3n2CC(=O)N2CCC(C)CC2)no1	1	.	.	-1	2287	-1.3	-30
CC(C)(C)C(=O)ON=C(N)c1ccc(Oc2cc(Cl)cc(Cl)c2)c([N+](=O)[O-])c1	.	1	4	2	.	-0.6	.

Next section.
SMILES	BJeLR viability	Mtb hypoxia inh	Mtb hypoxia inh growth	ugtP null kill	Bead autofluor	RN4220 kill	PrP 5UTR inh
COc1ccc2oc(=O)c(C(=O)N3CCN(C(=O)c4ccccc4)CC3)cc2c1	4	-9	-1	8	4115	0.0	-13
COC(=O)C(NC(=O)OC1C(=O)c2ccc(OC)cc2OC1c1cccc(C(F)(F)F)c1)C(C)C (centres undefined)	.	6	-4	3	.	5.0	.
O=C(CN1C(=O)c2cccnc2Oc2ccc(Cl)cc21)N1CCCC1	-17	3	7	1	5047	0.6	-10
CCc1cc2c(SCC(=O)N3CCCC3=O)ncnc2s1	.	8	1	6	.	3.8	-5
Cn1ccs/c1=N\S(=O)(=O)c1ccc(F)cc1	5	.	.	.	3119	.	1
OCc1ccnc2oc3ccccc3c12	5	16	4	1	6507	3.2	-14
CCOC(=O)c1sc2nc(CC(=O)OC)nc(NCc3ccc(Cl)cc3)c2c1C	-3	6	6	0	11671	1.2	-13
O=C(Cn1cnc([N+](=O)[O-])n1)NCCc1ccccc1	3	1	-1	26	4489	-0.1	-66
